# eIF4H inh – inhibitors of RNA binding by human eIF4H | Q15056 | eIF4H fluorescence polarization binding assay | inhibition, % at 35 µM | AID 2012 | hit rate 0.94% among 290,000;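 active = 50% or more with normal probe brightness, or confirmed in later tests; inconclusive = above 50% with abnormal brightness, or retests that disagree; inactive = below 50% or failed in later tests; about a fifth of its hits are not listed in these tables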;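 also: calls also rest on retests at 20 µM and on dose response follow-up; 0% = protein and probe with vehicle and 100% = probe without protein; strong numbers were not always called active; many hits fall short of the cut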
# MT1-MMP act inh – MT1-MMP (human) activation inhibition; P50281; hit rate 0.061% among 360,000; HT1080 RFP-PRO-GFP cells, GFP/RFP ratio fluorescence, overnight; percent of plate control window, DMSO zero; GFP/RFP ratio change, % at 20 µM;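 active = GFP/RFP ratio change of at least 30% with cell ATP level not reduced by more than half and red fluorescence within 50% of control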; also: strong numbers were not always called active
#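 Compound: 20 µM single dose, 1% DMSO / System: HT1080 RFP-PRO-GFP cells / Controls: DMSO and RFP-L50D-GFP cell wells / Read-out basis: GFP/RFP fluorescence ratio / Schedule: overnight compound exposure at 37 °C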
# UUG fidelity – modulators of start codon recognition fidelity in yeast. S. cerevisiae UUG-firefly luciferase reporter, luminescence/redox ratio. activity score, % at 18.7 µM. hit rate 0.13% among 350,000;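 active = replicate mean at a twofold rise or more, about +100% in these data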;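 also: firefly luciferase made from a UUG start codon reports start codon fidelity; reporter light over untreated wells divided by growth signal over untreated wells; some hits fall short of that in this replicate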
# Rce1 inh – yeast Ras-converting enzyme inhibition. Q03530. yeast membranes, quenched prenylated peptide cleavage fluorescence. calls only. hit rate 0.27% among 290,000. AID 2563;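 active = fall in fluorescence gain of 50% or more versus controls, with final raw signal at or below 3038400; inconclusive = same 50% fall but final raw signal above 3038400; inactive = fall in fluorescence gain under 50%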;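 also: plate controls were neutral control wells for no effect and wells lacking membranes for full effect; tested at 10 µM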
# CSC inhib – blocks cancer stem cells | cancer stem cell-like cells viability, luminescence | hit rate 1.1% among 300,000 | inhibition, % at 7.5 µM;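 active = mean at 75% or more and at least half the replicates too; inconclusive = mean and replicates disagree; tested in HMLE shEcad cells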;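 also: 0% = median of negative and 100% = median of positive control wells; the first replicate is given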
# HIV Env fusion – HIV envelope-mediated fusion inhibition; HeLa-JRFL Env/CEM21 cell fusion, luciferase; inhibition, % at 12.3 µM; hit rate 1.1% among 360,000; AID 651610;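 active = mean replicate inhibition score of at least 50 and every replicate individually at or above 50; inconclusive = only one of the two criteria met; inactive = mean below 50 and not all replicates reaching 50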;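 also: 0% = plate neutral controls and 100% = maraviroc near 300 nM; one replicate is shown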
# PABP FP inh – blocks human PABP binding to poly(A) RNA | fluorescence polarization | hit rate 1% among 290,000 | P11940 | inhibition, % at 35 µM;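 active = 50% or more with normal probe brightness, or confirmed in later tests; inconclusive = above 50% with abnormal brightness, or retests that disagree; inactive = below 50% or failed in later tests; about a fifth of its hits are not listed in these tables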;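 also: calls also rest on retests at 20 µM and on dose response follow-up; controls were probe without protein and protein plus probe with vehicle; some compounds called inactive have numbers as strong as hits; many hits fall short of the cut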
# Target sequence (P11940 whole entry, looked up): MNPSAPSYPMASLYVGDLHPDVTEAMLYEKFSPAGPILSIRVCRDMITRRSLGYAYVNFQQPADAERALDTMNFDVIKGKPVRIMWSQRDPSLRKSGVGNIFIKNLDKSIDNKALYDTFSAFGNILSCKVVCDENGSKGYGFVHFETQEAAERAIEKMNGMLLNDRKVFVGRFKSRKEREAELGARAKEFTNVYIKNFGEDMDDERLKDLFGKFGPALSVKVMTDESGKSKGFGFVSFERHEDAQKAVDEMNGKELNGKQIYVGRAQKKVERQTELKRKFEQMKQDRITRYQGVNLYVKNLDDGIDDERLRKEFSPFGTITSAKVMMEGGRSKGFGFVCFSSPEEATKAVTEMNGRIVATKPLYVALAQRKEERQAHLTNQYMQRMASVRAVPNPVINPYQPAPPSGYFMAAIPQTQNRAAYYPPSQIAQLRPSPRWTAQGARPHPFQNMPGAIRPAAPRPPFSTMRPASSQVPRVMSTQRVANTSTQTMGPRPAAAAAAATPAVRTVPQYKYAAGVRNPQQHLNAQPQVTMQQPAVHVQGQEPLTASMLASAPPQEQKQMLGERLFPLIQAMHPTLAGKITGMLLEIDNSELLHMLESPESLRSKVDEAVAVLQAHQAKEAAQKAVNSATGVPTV
# MT1-MMP act inh RFP – second read-out of MT1-MMP act inh, no call of its own (marks repeat the call); RFP signal change, %; measured here: RFP expression control read;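 0 = vehicle wells; hits needed this value within 50% of zero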
# An asterisk follows results filed as active; i = inactive; ? = inconclusive; . = not tested or not shown.
SMILES,eIF4H inh,MT1-MMP act inh,MT1-MMP act inh RFP,UUG fidelity,Rce1 inh,CSC inhib,HIV Env fusion,PABP FP inh
CCOC(=O)c1cnc2c(OC)cccc2c1N1CCN(c2ccc(OC)cc2)CC1,-7,-1,-6,-6,i,-3,-7,-2
Cc1nc2ccc(NC(=S)NCc3ccccc3)cc2nc1C,8,8,-3,-26,i,1,-22,8
CCc1nc2ccc(C(=O)N3CCN(C(C)=O)CC3)cn2c1N(C)C(=O)c1cccc(OC)c1,.,0,7,-3,.,.,6,.
COc1ccc(C(=O)N2CCN(Cc3ccc(OC)c(OC)c3)CC2)cc1,7,-4,-4,-12,i,-4,4,10
N#Cc1c2ncn(CC(=O)c3ccc(Br)cc3)c(=O)c2c2n1CCC2,-6,-2,0,-14,i,-13,.,-7
O=C(C[C@H]1C/C=C\C[C@H](Cc2ccc(F)cc2)C(=O)O[C@@H](c2ccccc2)CNC1=O)NCCO,.,-1,3,-5,.,-7,-22,.
CC(=O)C1C(c2ccc(O)cc2)NC(=O)NC1(O)C(F)(F)F (centres undefined),-12,0,2,-4,i,-11,15,-1
O=C(Nc1cc([N+](=O)[O-])ccc1O)c1cccc(NC(=O)c2ccco2)c1,-4,9,-5,-9,i,9,16,15
CC(=O)c1cccc(NC(=O)Cn2cnc(S(=O)(=O)N3CCOCC3)c2)c1,2,-1,-1,-3,i,-14,.,-13
CC(OC(=O)c1cccc(S(=O)(=O)N2CCOCC2)c1)C(=O)NCC1CCCCC1 (centres undefined),.,-1,2,10,.,.,5,.
CN1CCN(c2ccc(C(=O)NC3CCCCC3)cc2[N+](=O)[O-])CC1,-7,-4,-2,.,i,36,25,5
CCOC(=O)Cc1csc(NC(=O)CCCN2C(=O)c3ccccc3C2=O)n1,-2,0,1,-11,i,-6,-3,7
COc1ccccc1N1CCN(C(=O)COc2ccc(S(=O)(=O)NC(C)(C)C)cc2)CC1,2,.,.,.,i,-11,.,-2
CN(C)[C@H]1CCN([C@H]2CS(=O)(=O)N[C@@H]2COCc2ccccc2)C1,.,-1,3,-3,.,.,-2,.
Cc1ccc(C)c(NC(=O)CSc2nnc(C)c(=O)n2N)c1,3,5,0,.,i,-8,.,10
COc1cc(NC(C)=O)ccc1-c1cc2ccccc2oc1=O,-8,6,6,.,i,12,-2,0
O=C(c1ccccc1F)c1cc2c(cc1[N+](=O)[O-])OCCO2,-2,0,1,1,i,-4,2,-11
N#CCNC(=O)c1cccn1-c1ncc(C(F)(F)F)cc1Cl,1,0,2,.,i,-9,17,7
COc1ccc(/C=N/N=C2/SCC(=O)N2Cc2ccccc2)cc1,-7,1,-5,.,i,-9,-111,-4
COc1ccc(NC(=O)N[C@@H](CCSC)C(=O)O)cc1OC,0,-3,6,-10,i,-7,11,1
COc1ccc(Cl)cc1NC(=O)COC(=O)c1ccc(Br)o1,.,1,0,-6,.,0,-33,.
O=C(Cc1ccccc1)N/N=C/c1ccccc1Cl,-3,-4,-4,-18,i,6,-56,-6
Cc1ccc(/C=N/n2c(-c3cccs3)n[nH]c2=S)cc1,0,-2,0,-9,i,16,.,-1
Cc1nn(-c2ccccc2)c(N2CCCC2)c1/C=N/NC(=S)Nc1ccccc1F,-3,-2,-2,.,i,52,-26,-5
COc1ccc([C@H]2[C@H](C(=O)OC(C)(C)C)N3N=Cc4ccccc4C3C23C(=O)c2ccccc2C3=O)c(OC)c1 (some centres undefined),-2,0,3,11,i,6,-127,-3

# The closing 2 records of the part above lead into the next.
SMILES,eIF4H inh,MT1-MMP act inh,MT1-MMP act inh RFP,UUG fidelity,Rce1 inh,CSC inhib,HIV Env fusion,PABP FP inh
Cc1nn(-c2ccccc2)c(N2CCCC2)c1/C=N/NC(=S)Nc1ccccc1F,-3,-2,-2,.,i,52,-26,-5
COc1ccc([C@H]2[C@H](C(=O)OC(C)(C)C)N3N=Cc4ccccc4C3C23C(=O)c2ccccc2C3=O)c(OC)c1 (some centres undefined),-2,0,3,11,i,6,-127,-3
CCCS(=O)(=O)N1CCC(C(=O)NCCN(CC)c2ccccc2)CC1,-6,8,8,-12,i,11,.,-8
CN(c1ccccc1)S(=O)(=O)c1nnc(NC(=O)COc2ccccc2)s1,.,-1,0,-21,i,11,4,.
CN(C)CCCNc1oc(-c2cccc(Cl)c2)nc1C#N,-5,2,3,-8,?,38,.,-10
COc1cc(OC)cc(C(=O)OCC(=O)NC2CCCCCCC2)c1,.,5,3,-11,.,.,1,.
CCOC(=O)C1CCN(C(=O)Nc2ccc(OC(F)(F)F)cc2)CC1,-6,2,0,-11,i,-8,-40,-14
CCNC(=O)CSc1nc(-c2ccccc2)cs1,-4,3,2,.,i,-9,-32,35
COC(=O)c1sccc1NC(=O)CC1C(=O)NCCN1C(=O)Nc1ccc(OCc2ccccc2)cc1 (centres undefined),-4,2,0,15,i,-9,8,0
CCc1ccc(C(=O)NC(=S)NCc2cccnc2)cc1,-13,2,-7,-25,i,-3,-12,12
FC(F)(F)COc1ccc(-c2nnc(SCc3ccccc3)o2)cn1,-1,1,0,-5,i,6,-45,1
O=C(NC1CCCc2ccccc21)c1ccc2c(c1)OCO2 (centres undefined),12,3,4,-17,i,-12,17,9
CCc1noc(C)c1C(=O)N(C)CC(=O)Nc1ccc(F)c(F)c1F,.,4,1,-5,i,-12,5,.
C[C@@]12C(=O)Nc3cc(F)ccc3C(=O)N1[C@H]1c3cc(Br)ccc3OC[C@@H]1[C@@H]2c1ccccc1,.,-13,-12,0,.,68,46,.
Cc1noc(C)c1CN(C(=S)NC(C)C)c1ccccc1,3,-1,4,.,i,13,5,17
CC(=O)Nc1cc(-c2cccc(C(=O)N(C)C)c2)cn2c(-c3ccccc3)cnc12,.,1,7,-8,.,.,2,.
Cc1cccc(C(=O)NNC(=O)c2ccco2)c1,-2,2,1,.,.,-6,5,0
CCCN(CCC)CCCNC(=O)c1cc2cc3ccc(OC)cc3nc2o1,-12,2,-2,0,?,-25,-38,-4
CCCC(=O)Nc1ccc(C(=O)Nc2cc(C(F)(F)F)ccc2Cl)cc1,-11,0,-8,-7,i,.,.,-14
Cc1ccc(C2CC(c3ccccc3C)n3nc(N)nc3N2)cc1 (centres undefined),11,1,2,-3,i,-30,-19,-12
Cc1ccc(C(=O)O)cc1NC(=S)NC(=O)c1ccc([N+](=O)[O-])cc1Cl,1,2,1,.,i,-19,-3,-8
O=C(Nc1ccccc1)C(=O)Nc1ccc2c(c1)N(C(=O)C1CC1)CCC2,.,.,.,-31,i,.,-131,.
CC(C)(C)c1ccc(S(=O)(=O)NC(=O)C2(C)CCN2C(=O)c2cccc3ccccc23)cc1 (centres undefined),.,2,5,-11,.,.,-29,.
CC1=C(C(=O)Nc2cccnc2)C(c2cccnc2)n2nc(-c3cccs3)nc2N1 (centres undefined),-5,0,6,-12,i,.,.,0
Oc1c(C(c2cccs2)N2CCN(c3ccccc3)CC2)sc2ncnn12 (centres undefined),5,0,4,-29,i,-18,0,3
O=S(=O)(c1ccccc1)c1cnn(-c2ccccc2)c1-c1ccc(Cl)cc1,2,1,-8,-12,i,31,-1,3
COc1ccc2c(c1)c(=O)c(Br)c(C)n2Cc1ccccc1,-1,-6,-4,1,i,39,.,-9
SMILES,eIF4H inh,MT1-MMP act inh,MT1-MMP act inh RFP,UUG fidelity,Rce1 inh,CSC inhib,HIV Env fusion,PABP FP inh
O=C(NCc1ccccc1)c1ccc(CS(=O)Cc2ccc(Cl)cc2)o1 (centres undefined),-3,2,-1,0,i,1,6,4
COc1ccc(OCC(=O)Nc2ccccc2O)cc1,-1,1,2,-14,i,-4,.,8
O=C(COC(=O)c1cccc(S(=O)(=O)N2CCN(c3ccccc3)CC2)c1)NCC1CCCO1 (centres undefined),0,3,4,-1,i,-17,15,-8
COc1ccc(S(=O)(=O)N2CCOCC2)cc1NC(=O)CN1CCCC1,-18,0,4,-6,i,.,-12,-14
CSc1nc2nc3c(c(=O)n2[nH]1)CCC3,0,2,1,-23,i,4,.,-2
Cc1ccc(Cl)c(OCC(=O)OC(C)C(=O)NC2CC2)c1 (centres undefined),.,3,-3,-15,i,6,-12,.
CCOC(=O)c1c(C)nc2c(c1-c1ccc(OC)cc1)C(=O)CC(C)(C)C2,-2,1,3,2,i,20,-415,3
CCOC(=O)C1CCN(S(=O)(=O)c2ccc3c(c2)N(C(C)=O)CC(C)S3)CC1 (centres undefined),5,-3,-25,0,i,-5,11,-6
CN(C(=O)CSc1nc2[nH]ncc2c(=O)[nH]1)c1ccccc1,.,2,-3,-12,i,23,.,.
COc1cccc(C(=O)/C=C/Nc2ccc(S(=O)(=O)Nc3nc(C)cc(C)n3)cc2)c1,4,2,2,.,i,8,8,2
Cc1c(S(=O)(=O)c2ccccn2)c(N)n(Cc2ccccc2Cl)c1C,50,16,29,.,i,-10,7,16
COc1ccccc1/C=C\C=N\n1c(C2CCCCC2)n[nH]c1=S,-6,-3,-4,-28,i,3,14,8
CC(C)(C)c1ccc(OCCN2CCCC2)cc1,-10,6,3,.,i,52,.,0
COc1ccc(-n2cc(CNCCc3nc(C)cc(C)n3)c(-c3ccccc3Cl)n2)cc1,-7,-5,-4,-14,i,3,4,2

# Among those listed so far, 10 have fluorine:
SMILES,eIF4H inh,MT1-MMP act inh,MT1-MMP act inh RFP,UUG fidelity,Rce1 inh,CSC inhib,HIV Env fusion,PABP FP inh
O=C(C[C@H]1C/C=C\C[C@H](Cc2ccc(F)cc2)C(=O)O[C@@H](c2ccccc2)CNC1=O)NCCO,.,-1,3,-5,.,-7,-22,.
CC(=O)C1C(c2ccc(O)cc2)NC(=O)NC1(O)C(F)(F)F (centres undefined),-12,0,2,-4,i,-11,15,-1
O=C(c1ccccc1F)c1cc2c(cc1[N+](=O)[O-])OCCO2,-2,0,1,1,i,-4,2,-11
N#CCNC(=O)c1cccn1-c1ncc(C(F)(F)F)cc1Cl,1,0,2,.,i,-9,17,7
Cc1nn(-c2ccccc2)c(N2CCCC2)c1/C=N/NC(=S)Nc1ccccc1F,-3,-2,-2,.,i,52,-26,-5
CCOC(=O)C1CCN(C(=O)Nc2ccc(OC(F)(F)F)cc2)CC1,-6,2,0,-11,i,-8,-40,-14
FC(F)(F)COc1ccc(-c2nnc(SCc3ccccc3)o2)cn1,-1,1,0,-5,i,6,-45,1
CCc1noc(C)c1C(=O)N(C)CC(=O)Nc1ccc(F)c(F)c1F,.,4,1,-5,i,-12,5,.
C[C@@]12C(=O)Nc3cc(F)ccc3C(=O)N1[C@H]1c3cc(Br)ccc3OC[C@@H]1[C@@H]2c1ccccc1,.,-13,-12,0,.,68,46,.
CCCC(=O)Nc1ccc(C(=O)Nc2cc(C(F)(F)F)ccc2Cl)cc1,-11,0,-8,-7,i,.,.,-14
